# Vaccinia mCherry: inhibitors of vaccinia virus infection (mCherry reporter signal); Vaccinia virus mCherry reporter infection, fluorescence; about a quarter of the inactives have no number; Potency, µM (doses to about 36.5 µM), without a hit: top-dose activity change, negative = inhibition, most hits filed as inhibitors; actives 0.63% (n = 310,000); AID 720579; active = well fitted inhibition curve with a large enough effect; inconclusive = small, poorly fitted or top-dose-only effect; inactive = no such curve, though single readings can be large or run the other way; tested in A549 cells; also: nearly all actives have a fitted effect of over 35% in size; inactives centre near -10
# VACV Venus inh: inhibitors of vaccinia virus (Venus reporter); Vaccinia virus Venus reporter expression, fluorescence; Potency, µM (highest dose often 36.5 µM), without a hit: at the top dose activity change, negative = inhibition, most hits filed as inhibitors; actives 0.46% (n = 330,000); active means well fitted inhibition curve with a large enough effect; inconclusive means small, poorly fitted or top-dose-only effect; inactive means no such curve, though single readings can be large or run the other way; tested in A549 cells; also: nearly all actives have a fitted effect of over 30% in size; inactives centre near -10
# * = called active by the depositor; i = inactive; ? = inconclusive; / = no result given; & = joins results of further samples; [ ] = another dose, or the depositor's remark. % is scaled to controls: 0 for no effect and ±100 for the full control effect; potency is read from the fitted curve at half-maximal effect.
SMILES,Vaccinia mCherry,VACV Venus inh
CCN1C(=O)[C@H]2[C@H]3CN=C(SCc4ccc(C#N)cc4)N3[C@@](C)(C(=O)OC)[C@H]2C1=O,-17%,-1%
Cc1ccc2c(=O)cc(C(=O)Nc3sc4c(c3C(=O)NCc3ccco3)CCC4)oc2c1C,1%,2%
O=C(Nc1nc2ccc(F)cc2s1)c1nc(S(=O)(=O)Cc2ccccc2)ncc1Cl,-29%,-26%
COCCCNC(=O)CCCn1c(=O)c2cccn2c2ccccc21,-4%,-9%
CCC(C)(C)C1CCc2[nH]nc(C(=O)NC3CCCCC3)c2C1 (stereo not given),i,?
COc1cc2nc(CN3CCN(S(=O)(=O)c4ccccc4C(F)(F)F)CC3)[nH]c(=O)c2cc1OC,i,-10%
COc1ccc(CNC(=O)COC(=O)CN2C(=O)C(C)Oc3ccc(C)cc32)cc1 (stereo not given),0%,-3%
CCOc1ccccc1NC(=O)c1c(NC(=O)Cc2ccc(OC)cc2)sc2c1CCC2,-18%,-18%
CCOC(=O)c1ccc(C(=O)NNC(=O)C2CC=CCC2)cc1 (stereo not given),i,-2%
COc1nc(NCCc2ccc(OC)c(OC)c2)nc(Nc2ccccc2)n1,-18%,?

# Given with values under each structure: entries from further up.
# Values run as follows: Vaccinia mCherry, VACV Venus inh
CCN1C(=O)[C@H]2[C@H]3CN=C(SCc4ccc(C#N)cc4)N3[C@@](C)(C(=O)OC)[C@H]2C1=O
  -17%, -1%
COCCCNC(=O)CCCn1c(=O)c2cccn2c2ccccc21
  -4%, -9%
COc1cc2nc(CN3CCN(S(=O)(=O)c4ccccc4C(F)(F)F)CC3)[nH]c(=O)c2cc1OC
  i, -10%
Cc1ccc2c(=O)cc(C(=O)Nc3sc4c(c3C(=O)NCc3ccco3)CCC4)oc2c1C
  1%, 2%
CCOc1ccccc1NC(=O)c1c(NC(=O)Cc2ccc(OC)cc2)sc2c1CCC2
  -18%, -18%

# (listing goes on)
SMILES,Vaccinia mCherry,VACV Venus inh
CC(C)c1ccc(NC2CCCN(C(=O)CCN3CCCCO3)C2)cc1 (stereo not given),-4%,-5%
CC(=O)N1CCN(c2cc(N3CCc4ccccc4C3)c(F)cc2[N+](=O)[O-])CC1,i,-17%
O=C(CSc1nc2c(c(=O)n1-c1ccccc1)SCC2)NCC1CCCO1 (stereo not given),-7%,0%
O=C(OC1CCOC1=O)c1ccc(NS(=O)(=O)c2cccs2)cc1 (stereo not given),i,-13%
Cc1ccc(OCC(=O)NC(=S)Nc2ccc3c4c(cccc24)CC3)cc1,i,3%
COc1cc(/C=N/Nc2nc3ccccc3[nH]2)cc(Br)c1OCC(=O)N(C)C,-18%,-27%
CCOc1ccc(CNC(=O)CCSCc2ccccc2F)cc1OC,-8%,-7%
N#Cc1ccc(/C=N/NC(=O)c2cc(-c3cccs3)nc3ccccc23)cc1,?,?
CCN(C(=O)c1cn(CC)c(=O)c2cc(OC)c(OC)cc12)c1ccccc1F,-11%,-4%
CCCCn1ccnc1C(=O)c1cccc(S(=O)(=O)N2c3ccccc3CC2C)c1 (stereo not given),?,?
CCOc1ccccc1NC1c2ccccc2C(=O)N1Cc1ccco1 (stereo not given),i,-4%
COc1ccc(CNC(=O)c2ccc(N3CCCC3)c(NC(=O)NCc3ccc(C)cc3)c2)cc1,-22%,-25%
Nc1ccc2oc(-c3ccccc3Cl)cc(=O)c2c1O,0.79µM*,0.89µM*
Cc1nn(-c2ccccc2)c(C)c1NC(=O)COC(=O)c1ccc(Cl)c(S(N)(=O)=O)c1,i,-9%
O=C(Cn1cc([N+](=O)[O-])nc1[N+](=O)[O-])N1CCN(c2ccccc2)CC1,?,?
CCOC(=O)c1sc(C)c2c1NC(c1ccc(N(C)C)cc1)NC2=O (stereo not given),-25%,?
O=c1cc(Cl)nc2ccccn12,-14%,-3%
CC(C)(C)C(=O)Nc1ccc(-c2cnco2)cc1,i,-15%
COc1cc(NC(=O)C2CCCN2S(=O)(=O)c2cccc3cccnc23)cc(OC)c1OC (stereo not given),18%,-7%
COc1cc(OC)cc(C(=O)Nc2ccc(-c3nc4ccccc4o3)c(O)c2)c1,-10%,-21%
CN(C)c1ccc(C(=O)Nc2nnc(-c3ccc(Cl)cc3)o2)cc1,i,-7%
CCCCCCCCN1C(=O)[C@H](CC(=O)N2CCC(c3ccccc3)CC2)C[C@@]2(C(=O)OC)CC(C)(C)CC=C12,-12%,-13%
CC(C)Cn1c(=O)c2sccc2n2c(CCCC(=O)Nc3ccc(Cl)cc3)nnc12,-3%,-4%
Cc1c(Br)c([N+](=O)[O-])nn1CC(=O)NCc1cccs1,/,?
Cc1cc(CCN2CCC(=O)NC2=O)ccc1OC(C)C,-1%,-18%
O=C(NCCO)c1c(-c2ccc3c(c2)OCO3)noc1-c1ccsc1,i,-20%
Fc1ccc(CSc2nc3ccccc3[nH]2)c2ccccc12,-8%,-12%
C#CCOCCOCCOCCNc1nc(N2CCN(C(=O)CCCCCCCCCCNC(=O)[C@H]([C@@H](C)CC)n3cc(CCCCN=C(N)N)nn3)CC2)nc(N2CCN(C(=O)CCCCCCCCCCNC(=O)[C@H](CO)n3cc(CCCCCN)nn3)CC2)n1,?,7.1µM*
CCOc1ncccc1C(=O)OCC(=O)c1cc(OC)ccc1OC,-25%,-9%
O=C(NCc1ccccc1)OCCN1CCN(Cc2ccccc2)CCC1=O,?,-8%
Cc1cc(=S)nc(-c2ccccn2)[nH]1,-16%,-15%
OC(c1ccccc1)c1nc(-c2cnc3ccccc3c2)cs1 (stereo not given),i,4%
Cc1c(C)n(C(=O)CN2CCC(C)CC2)c2ccccc12,/,-6%
COc1ccc(-c2csc(Nc3ccc(Oc4ccccc4)cc3)n2)cc1,13%,-14%
CCCOC(=O)C1[C@H]2C(=O)N(Cc3ccco3)C[C@]23C=C[C@H]1O3 (stereo not given in full),2%,-1%
Cc1ccc(NC(=O)CSCC(=O)Nc2sccc2C#N)cc1,i,-3%
Cc1nnsc1C(=O)NNc1ccc(C(C)(C)C)cc1,-10%,-1%
Cc1cc(C)c(C#N)c(SCC(=O)C(C)(C)C)n1,-15%,-14%
O=Cc1c(N2CCN(CCO)CC2)nc2ccccn2c1=O,i,-13%
COc1cc(OC)cc(-c2c(-c3cccs3)c3cc(-c4ccc5c(c4)OCCO5)ccc3n2C)c1,-26%,-13%
Cc1ccc(C(=O)NN2C(=O)c3ccc(S(=O)(=O)c4ccc(C(=O)O)cc4)cc3C2=O)cc1,1%,-1%
CCSc1nnc(NC(=O)c2cccn(Cc3ccccc3Cl)c2=O)s1,10%,1%
O=C(NCCc1ccc(Cl)cc1)c1cnc2sc(N3CCOCC3)nn2c1=O,-5%,-8%
COc1cccc(NC2=CC(=O)CC(C)(C)C2)c1,-14%,-21%
CC=CC(C)=CC(C)C(=O)CC(O)CC1CC(=O)NC(=O)C1 (stereo not given),?,?
COc1ccccc1/C=C1\SC(=S)N(CCC(=O)NNC(=O)c2ccccc2O)C1=O,-5%,-5%
Cc1cc(C)cc(N2CCn3c2nc2c3c(=O)n(CCCc3ccccc3)c(=O)n2C)c1,-13%,-9%
O=C1NC[C@H](Cc2ccc(O)cc2)N(C[C@@H]2CCCN2C[C@H](Cc2ccc(O)cc2)N2C[C@H](Cc3ccccc3)N(CC3CCCCCC3)C(=O)C2=O)C1=O,-6%,1%
COCCSc1ccccc1C(=O)N1CCN(c2ccccc2OC)CC1,-2%,-10%
Cc1oc(/N=C/c2ccc(Cl)cc2Cl)c(C#N)c1C,34%[activator],18%

# Next entries follow:
SMILES,Vaccinia mCherry,VACV Venus inh
COc1ccccc1CN1CCN(Cc2nc(Cc3ccccc3)no2)CC1,-15%,-1%
COC(=O)Nc1nnc(/C=C/c2ccc(OC)cc2)s1,i,-15%
Cc1ccc2[nH]c(=O)c(CN(Cc3ccccc3)Cc3nnnn3Cc3ccccc3)cc2c1,-14%,-4%
CC1(C(=O)NCCCNc2ncc(C(F)(F)F)cc2Cl)C=CCN1C(=O)c1ccccc1 (stereo not given),i,-23%
Cc1nc2cc(NC(=O)Nc3cccc([N+](=O)[O-])c3)ccc2n1C,-27%,-20%
CCN(CC)S(=O)(=O)c1ccc(N(C)Cc2cccnc2)nc1,/,-17%
Cc1ccc(-c2nn3cnnc3c3ccccc23)cc1C,-11%,-17%
COc1ccc(NC(=O)CN(C)S(=O)(=O)c2ccc(C)cc2)c([N+](=O)[O-])c1,i,-10%
COc1ccc(CN2CCN(C(=O)c3ccc4c(c3)CCC4)CC2)cc1OC,-13%,-13%
COC(=O)CSC1=C(C#N)C(c2cccc(F)c2)CC(=O)N1 (stereo not given),/,?
CC1=C[C@@H]2c3cccc4[nH]cc(c34)C[C@H]2N(C)C1,?,6%&-2%
O=C(Cn1cnc2ccccc2c1=O)c1c[nH]c2ccccc12,-6%,-11%
O=C(COC(=O)CNS(=O)(=O)c1ccc(F)c(F)c1F)NC1CCCC1,-15%,-7%
COc1ccc(OC)c(-n2c(N)c(C(=O)NCC3CCCO3)c3nc4ccccc4nc32)c1 (stereo not given),/,-9%
CCCCC(=O)Nc1ccc(OCc2cc(=O)n3ccc(C)cc3n2)cc1,-9%,-11%
Cc1nnc(SCc2ccccc2)nc1-c1ccccc1,-14%,-9%
CCOc1ccc(CC(=O)Nc2ccc(NC(=O)c3ccco3)cc2)cc1OCC,-3%,-7%
COCC(=O)N(C)C[C@H]1Oc2cc(Br)ccc2S(=O)(=O)N([C@H](C)CO)C[C@H]1C,-7%,-11%
Cc1ccc(CN2C[C@H](Sc3ccccn3)C[C@H]2C(=O)Nc2ccc3sc(C)nc3c2)c(C)c1,-13%,-14%
CCc1ccc(NC(=O)CSC2=Nc3ccccc3C3=NC(CC(=O)NCc4ccc5c(c4)OCO5)C(=O)N23)cc1 (stereo not given),-11%,3%

# Single records, as listed above. Order of screens: Vaccinia mCherry, VACV Venus inh
# Record of `CCOc1ccc(CC(=O)Nc2ccc(NC(=O)c3ccco3)cc2)cc1OCC` → -3%, -7%
# Record of `O=C(Cn1cnc2ccccc2c1=O)c1c[nH]c2ccccc12` → -6%, -11%
# Record of `O=C(COC(=O)CNS(=O)(=O)c1ccc(F)c(F)c1F)NC1CCCC1` → -15%, -7%
# Record of `CC1=C[C@@H]2c3cccc4[nH]cc(c34)C[C@H]2N(C)C1` → ?, 6%&-2%
# Record of `Cc1nnc(SCc2ccccc2)nc1-c1ccccc1` → -14%, -9%

# Next section
SMILES,Vaccinia mCherry,VACV Venus inh
CCCn1c(/C=C/c2cc[n+](C)cc2)nc2ccccc21,i,-13%
CC(=O)N1CC=CC1(CC(C)C)C(=O)NCCc1c[nH]c2ccccc12 (stereo not given),i,-8%
O=C(C1CCN(c2ncnc3c2sc2cccc(F)c23)CC1)N1CCOCC1,?,?
CCC(C)(C(=O)NC1CCCC1)N(C(=O)CNC(C)=O)c1ccccc1 (stereo not given),-9%,-3%
Cc1ccc(SCCCCN2C(=O)NC(C)(C)C2=O)cc1,-20%,-5%
COc1ccc(C(=O)NC(=S)Nc2ccc(N3CCCC3)cc2)cc1,-20%,-1%
O=C(CSc1nc(-c2ccc(F)cc2)cc(C(F)(F)F)n1)NCc1cccs1,-8%,-15%
CC(NC(=O)COC(=O)CCc1nc(=O)c2ccccc2n1C)c1ccccc1 (stereo not given),i,-8%
Nc1ncnc(N(c2ccccc2)C2CCCCC2)c1[N+](=O)[O-],-4%,-12%
Cn1c(CCNC(=O)C2CCCCC2)nc2cc([N+](=O)[O-])ccc21,-2%,-4%
CCN(CC)c1ccc(NC(=O)c2cnccn2)cc1S(=O)(=O)Nc1ccc(OC)cc1,-19%,?
Cn1c2ccccc2c(=O)c2c(=O)n(-c3ccc(F)cc3)c(-c3cccs3)nc21,-5%,0%
COc1cc(C=O)ccc1Oc1nnnn1-c1ccccc1,i,-11%
CC(=O)Nc1ccc(/C=C(\C#N)C(=O)NC2CCCCC2)cc1,i,-5%
COc1ccc([N+](=O)[O-])cc1NC(=O)C1CCCNC1=O (stereo not given),-7%,-17%
O=C(Nc1nc2ccccc2n1CCN1CCOCC1)c1ccc(Cn2cc([N+](=O)[O-])cn2)o1,-17%,-19%
Cc1[nH]n(-c2ccc([N+](=O)[O-])cc2)c(=O)c1C=NCCN1CCN(C(=O)c2ccc(Br)cc2)CC1,-2%,-1%
Cc1ccc(N2CC(c3nc(-c4ccc(Cl)cc4)no3)CC2=O)cc1F (stereo not given),-1%,-1%
O=[N+]([O-])c1ccc(CSc2ccc(-c3ccccn3)nn2)cc1,-8%,-15%
Cc1ccc(COC(=O)c2cc(S(=O)(=O)N3CCCCC3)ccc2N2CCOCC2)cc1,-10%,-6%
COc1ccc(-c2csc(Nc3cccc(C)n3)n2)cc1OC,-9%,-15%
CN(C)C(=O)c1ccc(NC(=O)COC(=O)c2cc(S(=O)(=O)N(C)C)ccc2N2CCCC2)cc1,i,-13%
c1ccc(-c2nnc(C3CC(c4cccnc4)=NO3)o2)cc1 (stereo not given),i,-3%
COC(=O)CCC(=O)OC1(C)C(=O)C2=CN(Cc3ccccc3)C(c3ccc(OC)cc3)=CC2=C(Br)C1=O (stereo not given),-4%,4%
COc1ccc2nc(C)c3cc(C)oc3c2c1,-13%,-7%
CCN(c1ccc(C)cc1)S(=O)(=O)c1nnc(NC(=O)C2CCCCC2)s1,-12%,-2%
Cc1ccc(C(=O)Nc2ccc(-c3nc4ccccc4s3)cc2C)cc1C,6%,3%
CCCOc1ccc(C2/C(=C(/O)c3ccccc3)C(=O)C(=O)N2CCCN(C)C)cc1OC (stereo not given),-5%,-14%
CCS(=O)(=O)N1CCC(C(=O)NCCC2=CCCCC2)CC1,-22%,-10%
Cc1ccccc1-c1nc(NCC2CC2)nc2ccsc12,25%,3%

# Source: PubChem BioAssay
